High-throughput results deposited in PubChem by National Center for Advancing Translational Sciences (NCATS).
gsp ag = qHTS for Agonist of gsp, the Etiologic Mutation Responsible for Fibrous Dysplasia/McCune-Albright Syndrome: qHTS. gsp mutant cells, cAMP HTRF, 30 min; control for the full effect not named in the record. Potency, µM (top dose mostly 76.9 µM), for the others: at the highest dose activation (cAMP increase), usual class: activators. 340,000 tested, 0.13% active. AID 624287, 2012; active = well fitted activation curve with a large enough effect; inconclusive = small, poorly fitted or top-dose-only effect, or another doubt; inactive = no such curve, though single readings can be large or run the other way; cell line not stated here;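 further: phosphodiesterase inhibitor Ro 20-1724 added with compounds to block cAMP breakdown; potency means the concentration at half of the fitted maximal effect; nearly all actives have a fitted effect of over 60% in size; about a fifth of the inactives were tested at one dose only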
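Cells stably selected in G418 were plated at 2000/well, grown 16-24 hr, then given compounds in DMSO with the PDE inhibitor […] (300 uM solution added) for 30 min at 37C; cAMP was read by HTRF.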
TRPV1 PAM = HTS Assay for Compounds that Act as Potentiators of the Vanilloid Receptor 1 | 320,000 tested, 0.02% active | TRPV1-expressing cells, Fluo-8 calcium influx, capsaicin EC20 potentiation; host cell line not named in the record; control for the full effect not named in the record | potentiation, % at 8.33 µM | Transient receptor potential cation channel subfamily V member 1 (Homo sapiens), Q8NER1; active means potentiation above 80%; inconclusive means 30% to 80%; inactive means below 30%; further: 0% is about no effect
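Fluo-8 calcium influx in TRPV1-expressing cells, kinetic read (ex 480/em 520 nm). Compound added and read 3 min for agonist activity, followed by capsaicin at EC20 final and 2 min further read for enhancement.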
TRPML1 blocker = qHTS for Inhibitors of the Human Mucolipin Transient Receptor Potential 1 (TRPML1); Mucolipin-1 (Homo sapiens), Q9GZU1; TRPML1-inducible cells, Ca2+ dye fluorescence, FDSS; stronger effect = lower value; inhibition of EC80 agonist-evoked calcium signal; activity change, negative = inhibition, % (no concentration beside the values); 390,000 tested, 0.02% active; AID 624415, 2012; in the data active means activity change below about -50%; inconclusive means about -30% to -50%; inactive means above about -30%;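 further: stimulus is agonist 54-4 at its EC80 concentration; on the % scale 0 is the no-effect control and ±100 the full control effect; compound concentration not given in the record; the text of the record puts the active cut at -80%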
Target sequence (Q9GZU1 whole entry, looked up): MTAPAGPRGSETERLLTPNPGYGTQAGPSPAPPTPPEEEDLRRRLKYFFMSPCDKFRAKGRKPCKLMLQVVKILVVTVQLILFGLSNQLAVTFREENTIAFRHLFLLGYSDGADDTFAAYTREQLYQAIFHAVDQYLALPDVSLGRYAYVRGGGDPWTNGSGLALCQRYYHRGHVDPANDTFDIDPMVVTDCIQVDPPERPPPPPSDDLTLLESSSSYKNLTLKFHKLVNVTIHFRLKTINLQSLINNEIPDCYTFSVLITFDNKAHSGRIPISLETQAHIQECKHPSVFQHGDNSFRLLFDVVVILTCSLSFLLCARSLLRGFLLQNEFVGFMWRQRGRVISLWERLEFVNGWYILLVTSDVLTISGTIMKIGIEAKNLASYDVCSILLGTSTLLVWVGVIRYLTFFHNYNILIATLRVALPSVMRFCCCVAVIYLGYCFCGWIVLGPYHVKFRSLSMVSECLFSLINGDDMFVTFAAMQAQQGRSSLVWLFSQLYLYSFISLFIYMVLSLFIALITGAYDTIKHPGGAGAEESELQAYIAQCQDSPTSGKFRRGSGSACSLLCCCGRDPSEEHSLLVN
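Tet-induced TRPML1-DL cells loaded with Ca8 no-wash calcium dye were read kinetically on FDSS. Compound addition was followed by EC80 agonist 54-4 (4 uM final); inhibition was read over 110 s.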
Sfp PPTase inh = qHTS Assay for Inhibitors of Bacillus subtilis Sfp phosphopantetheinyl transferase (PPTase); 310,000 tested, 3.5% active; AID 1490, 2009; Potency, µM, inactives show max response, negative = inhibition, most hits filed as inhibitors; Biochemical Sfp PPTase activity, qHTS; active means well fitted inhibition curve with a large enough effect; inconclusive means small, poorly fitted or top-dose-only effect, or another doubt; inactive means no such curve, though single readings can be large or run the other way;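 further: the enzyme is Sfp with the accession as filed and its product quenches rhodamine fluorescence; potency means the concentration at half of the fitted maximal effect; 0% = enzyme reaction without inhibitor and -100% = no enzyme wells; top concentration of the series not given in the record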
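Sfp 15 nM + cpd, 15 min RT; start w/ rhodamine-CoA 5 uM, BHQ-2-YbbR 12.5 uM (final); 50 mM Hepes pH 7.6, 10 mM MgCl2, 0.01% NP-40, 0.01% BSA; read 525/598 nm at 0 and 30 min.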
gsp antag = qHTS for Antagonists of gsp, the Etiologic Mutation Responsible for Fibrous Dysplasia/McCune-Albright Syndrome: qHTS. gsp-mutant cells, cAMP HTRF, 30 min; control for the full effect not named in the record. Potency, µM (doses to about 76.9 µM), for inactives: at the highest dose activity change, negative = inhibition, hits mostly inhibitors. 340,000 tested, 0.4% active. AID 624288, 2012; active = falling curve of any shape with a large fitted effect; inconclusive = falling curve, mostly with a smaller effect; inactive = flat or rising curve; cell line not stated here;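 further: intracellular cAMP measured with PDE inhibitor Ro 20-1724 present during compound exposure; potency means the concentration at half of the fitted maximal effect; on the % scale 0 is the no-effect control and ±100 the full control effect; nearly all actives have a fitted effect of over 65% in size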
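G418-selected cells were plated in DMEM/10% FBS for 16-24 h at 37C, then treated with compounds plus the PDE inhibitor […] (300 uM solution added) for 30 min at 37C. Intracellular cAMP was measured by HTRF after 30 min lysis at room temperature.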
ClpP mod = qHTS Assay for Activators of ClpP. 340,000 tested, 1.9% active. Potency, µM (series often up to 57.5 µM), for the others: at the top dose activity change, negative = active. AID 651965, 2013. purified B. subtilis ClpP, FRET peptide cleavage, 20 min; active = well fitted falling curve with a large enough effect; inconclusive = small, poorly fitted or top-dose-only effect; inactive = no such curve, though single readings can be large or run the other way; further: potency means the concentration at half of the fitted maximal effect; the source files actives as falling curves though it sought activators and does not explain the sign; nearly all actives have a fitted effect of over 65% in size; many hits overshoot -100%
Target sequence (P80244 whole entry, looked up): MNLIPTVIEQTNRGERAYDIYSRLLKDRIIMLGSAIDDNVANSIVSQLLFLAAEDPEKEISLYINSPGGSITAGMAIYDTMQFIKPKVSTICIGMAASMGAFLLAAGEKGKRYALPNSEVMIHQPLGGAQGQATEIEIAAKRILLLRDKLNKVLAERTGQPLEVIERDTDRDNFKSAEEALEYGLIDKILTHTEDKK
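Purified B. subtilis ClpP, 10 microg/mL final in Tris/HCl pH8 with KCl, BSA, glycerol and Tween-20, cleaved an Abz/nitrotyrosine-quenched decapeptide. Fluorescence (ex 320, em 430) was read at 0 and 20 min at room temperature. Delta was normalized to 5.8 microM ADEP and DMSO/no-enzyme controls.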
Menin-MLL FL inh = qHTS Assay for Inhibitors Targeting the Menin-MLL Interaction in MLL Related Leukemias: Competition With Fluorescein Labeled MLL-derived Peptide. FP activity change, % at 61.4 µM. 290,000 tested, under 10 active. AID 1766, 2009. Fluorescence polarization, fluorescein-MLL peptide displacement from menin; inconclusive = falling polarisation curve, or a change in total fluorescence; inactive = total fluorescence flat and polarisation flat or rising; no compound was filed as active; the % refers to the polarisation; negative = inhibition;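 further: % of control where 0% means no effect; inhibitors lower the polarisation; unlabelled MLL peptide was the positive control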
An asterisk follows results filed as active; ? = inconclusive; . = not tested or not shown; & = joins results of further samples; [ ] = another dose, or the depositor's remark. Compounds as they come; 4.9% or so of the library scored in one or more.

| Structure | gsp ag | TRPV1 PAM | TRPML1 blocker | Sfp PPTase inh | gsp antag | ClpP mod | Menin-MLL FL inh |
| --- | --- | --- | --- | --- | --- | --- | --- |
| O=C(Nc1nc(-c2ccc(S(=O)(=O)N3CCCC3)cc2)cs1)c1ccco1 | 1% | -9 | -1 | 1% | 5% | 5.4% | 1.3 |
| CC(C)Oc1ccc(/C=C(/NC(=O)c2ccccc2)C(=O)NCCC(=O)O)cc1 | -28% | -6 | 15 | 12% | 2% | . | -1.9 |
| Cc1ccc(C(=O)Nc2ccc(S(=O)(=O)N3CCOCC3)cc2)cc1 | -17%[15.4 µM] | -2 | 13 | 4% | . | . | -2.3 |
| O=C(Nc1nnc(C2CC2)s1)c1ccc(Cl)nc1 | -18% | -1 | -1 | . | -18% | 1.9% | . |
| COCC(=O)N(c1ccc(C(C)C)cc1)C1C=CS(=O)(=O)C1 (stereo not drawn) | -24% | 1 | 36 | 10% | 7% | 0.4% | 2.0 |
| CCOC(=O)C1C(=O)CC(C)(O)C(C(=O)OCC)C1c1cc(Br)ccc1OC (stereo not drawn) | 0% | -16 | 0 | 16% | 1% | 0.0% | 2.6 |
| CCOC(=O)CN1C(=O)N[C@@H](c2ccco2)C(C(=O)OC)=C1C | -15% | . | -3 | ? | 4% | -2.3% | 20[11.7 µM] |
| CCc1cccc(N(C(=O)c2csnn2)C(C(=O)NC(C)(C)C)c2ccncc2)c1 (stereo not drawn) | -2%[15.4 µM] | -5 | -1 | -2% | 16% | . | -0.2 |
| Cc1nn(-c2ccccc2)c(N2CCCC2)c1/C=C1\N=C(c2ccc(F)cc2)OC1=O | -25% | 1 | 1 | -6% | 2% | -0.4% | ? |
| Cc1ccc(CNC(=O)COC(=O)CCC(=O)c2cccs2)cc1 | 4%[15.4 µM] | -13 | -3 | -5% | 14% | . | 1.2 |
| CC1(C)Cc2c(c(N3CCOCC3)nc3sc(C(=O)Nc4ccc(Cl)cc4)c(N)c23)CO1 | ? | -23 | -5&37 | 32µM* | -10% | ? | -2.3 |
| Cc1cc(S(=O)(=O)Nc2ccc(C(=O)NCCCn3ccnc3)cc2)ccc1F | 0%[15.4 µM] | -2 | -27 | . | 9% | -2.1% | . |
| O=C1c2ccccc2N(Cc2ccc(Cl)cc2)C2=NCCN12 | ? | -5 | 10 | 10% | -12% | -1.0% | 4.6 |
| CCN(CC)C(=O)c1cccc2c1C(=O)c1ccccc1-2 | 11% | -43 | -15 | 9% | -7% | -0.4% | -1.6 |
| COc1ccc([C@@H]2C=C(C(=O)O)O[C@H](OCCCCO)C2)cc1 | . | 5 | -10 | 27% | -2% | -11% | 0.4 |
| O=C(Nc1nccs1)c1c(O)c2c([nH]c1=O)CCCC2 | ? | 2 | 4 | -8% | 12% | . | -2.4 |
| COc1ccc(C(=O)NCC(c2ccco2)N2CCCCC2)cc1S(=O)(=O)Nc1ccc(C)cc1 (stereo not drawn) | -50% | . | 15 | . | -9% | 0.4% | . |
| CC1CCN(S(=O)(=O)c2ccc(NC(=O)N3c4ccccc4Sc4ccccc43)cc2)CC1 | -15% | 4 | 4 | 4% | 3% | 0.8% | -0.4 |
| CCc1ccc(C(=O)C(C)OC(=O)Cn2cnc3c2c(=O)n(C)c(=O)n3C)cc1 (stereo not drawn) | 1% | 7 | 6 | . | 9% | -1.7% | . |
| CSCCC(NC(=O)c1ccc([N+](=O)[O-])cc1Cl)C(=O)OCC(=O)NC(=O)CN1CCCC1=O (stereo not drawn) | -24%[15.4 µM] | 10 | -7 | . | 13% | -0.2% | . |
| Cc1oc(C(C)(C)C)c(CN2CCOCC2)c1C(=O)O | -1%[15.4 µM] | -2 | -16 | 6% | 10% | . | 2.4 |
| Cc1ccc(-c2nc3ccccc3c(=O)n2NC(=O)c2cccs2)cc1 | 15% | -31 | -6 | -11% | -4% | 2.8% | 7.0 |
| Cc1cc(C)nc(N/N=C/c2ccccc2OCc2ccc(Cl)cc2)n1 | -5%[15.4 µM] | -13 | 13 | 11% | ? | -1.8% | 0.5 |
| COC(=O)Cn1cnc2c(nnn2-c2ccc(F)cc2)c1=O | -28% | -4 | 17 | 1% | -2% | -3.5% | -4.9 |
| CN(C)CCCCOc1ccc(Br)cc1Cl | -1%[15.4 µM] | 6 | 8 | -27% | 9% | . | 6.0 |
| C=CCNC(=O)c1ccncc1 | 0% | -4 | -7 | 11% | 9% | -1.8% | 0.6 |
| Cc1nnc(SCc2cnc(-c3ccccc3)o2)[nH]c1=O | 5% | -10 | 0 | -3% | -1% | -0.7% | 1.1 |
| O=C(CCS(=O)(=O)c1ccc2c(c1)NC(=O)CO2)NCCc1ccc(Cl)cc1 | 29% | -9 | 0 | 9% | -3% | -1.0% | 1.8 |
| CCOC1=C/C(=C/c2c(N)n3nc(S(=O)(=O)CC)sc3nc2=O)C=CC1=O | -2% | -10 | -5 | -6% | 4% | -2.4% | ? |
| COc1ccc(N(CC(=O)N2CCN(c3cccc(C)c3)C(C)C2)S(=O)(=O)c2c(C)n[nH]c2C)cc1 (stereo not drawn) | -40%[inhibitor] | -32 | 16 | 3% | -22% | . | -1.4 |
| COc1ccccc1N1C(=O)CC1(C#N)c1ccc(OCc2ccccc2)cc1 (stereo not drawn) | -12%[15.4 µM] | 5 | -7 | 5% | 8% | 0.9% | . |
| O=C(COC(=O)c1ccc[nH]c1=O)NCC12CC3CC(CC(C3)C1)C2 | 3% | 7 | -2 | . | 3% | -18% | . |
| O=C(CCSCc1ccccc1F)NCc1cccnc1 | 10%[15.4 µM] | -24 | 16 | 6% | 3% | -4.0% | 0.8 |
| O=C(CCC(=O)n1ncc2ccccc21)NCc1ccc(F)cc1 | 9% | -15 | 14 | 6% | 3% | -1.3% | 2.0 |
| CCCCNC(=O)c1ccc(N2CCOCC2)c(NS(=O)(=O)c2ccc(OC)cc2)c1 | -1% | -5 | 5 | -14% | 7% | -10% | -2.6 |
| COC(=O)CN1C(=O)[C@H]2[C@@H](/C=C/c3ccccc3)N3C(=O)CN(Cc4ccc(-c5ccccc5)cc4)C(=O)[C@@]3(C)[C@H]2C1=O | ? | . | -10 | . | 5% | -3.4% | . |
| COC(=O)Nc1ccc(S(=O)(=O)NCc2ccccn2)cc1 | -3%[15.4 µM] | 2 | -10 | 1% | 6% | . | 3.1 |
| CCOC(=O)C1(CC2CCCCO2)CCN(Cc2nc3ccccc3nc2C)CC1 (stereo not drawn) | 6% | -14 | 32 | 6% | 8% | . | ? |
| CC1CC(C)CN(C(=O)CN(C)S(=O)(=O)c2ccc3c(c2)c(=O)n(C)c(=O)n3C)C1 (stereo not drawn) | -12% | -3 | 0 | 11% | 1% | -9.5% | . |
| COc1ccccc1-n1c(SCC(=O)Nc2ccc(F)cc2)nc2c(c1=O)SCC2 | 5% | -18 | 20 | -19% | -5% | -3.6% | -3.7 |
| S=C1CCC(c2ccc(Cl)cc2)=NN1c1ccccc1 | -2%[15.4 µM] | -3 | -1 | 3% | -11% | . | 4.5 |
| CC(=O)Nc1ccc(Nc2nc3ccccc3nc2NS(=O)(=O)c2ccccc2)cc1 | 10% | 3 | -14 | 20% | -29% | -6.9% | 15 |
| CCCOc1ccc(CCC(=O)N/N=C/c2ccco2)cc1 | -11%[15.4 µM] | 6 | -2 | -7% | 7% | . | 6.0 |
| C[C@H](NC(=O)c1nc[nH]c1C(=O)NC(c1ccccc1)c1ccccc1)C(=O)OCc1ccccc1 | . | 7 | 8 | 4% | -13% | ? | -1.0 |
| CCCCN1C2CCCC1CC(NC(=O)c1ccccc1Cl)C2 (stereo not drawn) | -34% | 3 | -6 | 3% | 10% | -0.4% | 3.3 |
| Cc1ccnc(NC(=O)c2cccc3ccccc23)c1 | 30% | -7 | 31 | 14% | 2% | -1.0% | . |
| CCc1nnc(NC(=O)c2cccc(S(=O)(=O)N(C)c3ccccc3)c2)s1 | -32%[inhibitor] | -12 | -13 | 1% | 8% | -5.0% | 2.1 |
| CC(NC(=O)c1ccccc1)C(=O)OCC(=O)c1c(N)n(C)c(=O)n(C)c1=O (stereo not drawn) | ? | 3 | 1 | . | 11% | -1.2% | . |
| O=C(CSc1nnc(Cc2ccccc2)o1)c1ccc(F)cc1 | 11%[15.4 µM] | -30 | 30 | 5% | 3% | . | 0.6 |
| COc1ccc(C2C(C#N)=C(N)Oc3cc(C)[nH]c(=O)c32)cc1OC (stereo not drawn) | -44%[inhibitor] | 5 | -3 | 22% | 11% | -1.3% | -0.1 |
| COc1c(Cl)cccc1-c1cn2ccc(C)cc2n1 | -1%[15.4 µM] | -13 | -17 | -12% | -12% | . | 2.8 |
| COc1cc(C2C3=C(Nc4nc(N)[nH]c(=O)c42)c2ccccc2C3=O)ccc1O (stereo not drawn) | -22%[15.4 µM] | -9 | -17 | ? | 1% | . | ? |
| COc1ccc(CC(=O)NNC(=O)CSc2nnc(C)n2-c2ccccc2)cc1 | 11%[15.4 µM] | -3 | 8 | 14% | -6% | -0.3% | . |
| Cc1ccc2c(Cl)c(C(=O)NCc3cccnc3)sc2c1 | -32% | -1 | 4 | 10% | -18% | -3.6% | 0.8 |
| Cc1ccc(C(=O)OCC(=O)N2c3ccccc3NC(=O)C2(C)C)cc1S(=O)(=O)N1CCCCC1 | -14% | . | -4 | . | -19% | . | . |
| Cc1cc(C)nc(NC(=O)/C=C/c2ccc(Cl)cc2)n1 | -38%[15.4 µM] | -15 | 12 | 4% | -7% | . | 0.5 |
| N#Cc1c(NC(=O)CSc2n[nH]c(N)n2)oc(-c2ccccc2)c1-c1ccccc1 | -6% | -8 | 35 | 11% | 1% | -4.6% | 1.3 |
